High-throughput results: PubChem BioAssay, ICCB-Longwood Screening Facility, Harvard Medical School
Sa growth inh = S. aureus growth inhibition at 42 and 30 °C, primary screen, LtaS inhibitor project, RN4220, two temperatures | OD600, 20 h, 42 °C; active compounds read low | relative growth, % (test concentration not listed) | 170,000 tested, 0.53% active | AID 720641, 2013;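 active = growth at 42 °C up to 50% and 20 or more points under that at 30 °C, or under 10% at both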;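 note: 300 nL library stock went into each well; scaled to the means of positive and negative controls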
HCMV UL50-53 inh = inhibitors of HCMV UL50-UL53 interaction, biochemical, HTRF | HCMV UL50-UL53 nuclear egress complex (human cytomegalovirus) | normalized percent inhibition | inhibition, % (test concentration not listed) | 190,000 tested, 0.15% active | AID 1918969, 2023;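 active = both replicates at 50% or more, plus weaker picks with an unusually low signal ratio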;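 note: stock transfer was 100 nL into about 20 µL; 0% = negative control wells and 100% = wells with untagged competitor protein; inactives centre near -12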
GIV Gai3 FP = inhibitors of GIV peptide binding to Galpha-i3, primary screen, biochemical, fluorescence polarization, FITC-GIV GBA peptide, rat Galphai3 | AID 1224905, 2016 | percent of control (FP), % (test concentration not listed) | 210,000 tested, 0.42% active | Guanine nucleotide-binding protein G(i) subunit alpha-3 (Rattus norvegicus), P08753 | 90 min; active compounds read low; scaled: aluminum fluoride 0%, vehicle 100%;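 active = replicate mean at 85% of control or lower, very high polarization wells dropped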;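 note: lower values mean more displacement of the GIV peptide from Galpha-i3; wells of about 15 µL received 100 nL stock; the first replicate is given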
Target sequence (P08753 whole entry, looked up): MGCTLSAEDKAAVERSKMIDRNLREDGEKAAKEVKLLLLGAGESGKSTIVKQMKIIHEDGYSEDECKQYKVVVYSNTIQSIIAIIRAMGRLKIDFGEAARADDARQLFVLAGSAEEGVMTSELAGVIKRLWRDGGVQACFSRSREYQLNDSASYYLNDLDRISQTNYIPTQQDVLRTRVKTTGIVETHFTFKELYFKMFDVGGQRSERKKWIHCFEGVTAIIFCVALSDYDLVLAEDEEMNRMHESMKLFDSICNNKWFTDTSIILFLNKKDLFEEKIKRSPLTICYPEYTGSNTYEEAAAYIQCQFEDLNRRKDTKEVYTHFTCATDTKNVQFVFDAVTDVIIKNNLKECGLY
Sa growth inh second temp = recorded beside Sa growth inh, whose call it bears; relative growth, %; measured here: growth at 30 °C;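 optical density after 20 h as mean of two plates; 100% = untreated growth and lower means inhibition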
Starred values were filed as active, the others as inactive; . = no result given.

#	Structure	Sa growth inh second temp	HCMV UL50-53 inh	GIV Gai3 FP	Sa growth inh
1	O=C(NC1CCCc2ccccc21)c1cccc(Nc2cc(-c3ccccc3)ncn2)c1 (stereo unspecified)	.	-15	117	.
2	O=C(c1ccc(COc2ccccc2Br)cc1)N1CCc2ccccc2C1	91	.	107	109
3	NC(=O)C1CCN(S(=O)(=O)c2cc(Cl)sc2Cl)CC1	82	-17	101	90
4	CC(C)(C)OC(=O)NC1CCN(S(=O)(=O)c2cccc(S(=O)(=O)N3CCOCC3)c2)CC1	84	-10	100	101
5	O=C(Nn1c(-c2ccc(Br)cc2)nc2ccccc2c1=O)c1ccc(Cl)c([N+](=O)[O-])c1	.	-28	103	.
6	O=C(COC(=O)c1ccc2c(c1)S(=O)(=O)N=C1CCCCCN12)Nc1cccc2nsnc12	87	-62	.	90
7	CCOC(=O)Cn1c(=O)n(Cc2ccccc2Cl)c(=O)c2cccnc21	87	6	106	106
8	CC(=O)N1CC(C)Oc2ccc(S(=O)(=O)Nc3ccc(Cl)cn3)cc21 (stereo unspecified)	88	-27	97	90
9	CCOC(=O)N1CCN(C(=O)c2sc3ncnc(N4CCOCC4)c3c2C)CC1	.	-2	105	.
10	COc1cc(/C=C2\N=C(c3ccc(Cl)c([N+](=O)[O-])c3)OC2=O)cc(Br)c1OC(C)=O	.	-13	103	.
11	CC1(c2ccccc2)NC(=O)NC1=O (stereo unspecified)	89	-25	.	81
12	Cc1cc(C)c(NC(=O)CSC2=NN3CCCC(=O)N=C3S2)c(C)c1	89	-2	112	95
13	CCOC(=O)N1CCC(NC(=O)Cn2c3ccccc3c(=O)c3cc(C)ccc32)CC1	.	-3	109	.
14	O=C(NCc1ccc2c(c1)OCO2)c1ccc2c(c1)N(Cc1cccc(Cl)c1)C(=O)c1ccccc1S2	97	.	102	124
15	COc1ccc(NS(=O)(=O)c2ccc3c(c2)NC(=O)CC(=O)N3)cc1	.	-23	105	.
16	O=C(O)CC1CCS(=O)(=O)C1 (stereo unspecified)	100	-23	99	96
17	CCOC(=O)c1[nH]c2ccccc2c1NC=O	90	-19	.	94
18	CCc1ccc(NC(=O)c2ccc3c(O)c(S(=O)(=O)c4ccc(Cl)cc4)c(=O)[nH]c3c2)cc1	87	.	99	102
19	CN(C)S(=O)(=O)c1ccc2c(c1)nc(CCC(=O)Nc1ccc3c(c1)OCO3)n2C	92	-8	.	99
20	Cc1ccc(C(=O)O)cc1NC(=O)c1ccco1	87	-33	.	113
21	O=C(O)c1ccccc1OCCOc1ccccc1C(=O)O	99	-5	105	108
22	O=C(c1ccccc1C(F)(F)F)N1CCc2ccccc21	93	-22	.	81
23	CC(C)CNC(=O)c1ccc2c(=O)n(C(C)C)c3nn(CC(=O)NC(C)(C)C)c(=O)n3c2c1	.	2	101	.
24	COc1ccc(NC(=O)CCN2CCN(S(=O)(=O)c3cc(Cl)ccc3OC)CC2)cc1	87	-26	108	111
25	O=C(O)CCN1Cc2ccccc2C1=O	76	-4	.	93
26	Cc1cc(/C=C2\C(=O)NC(=S)N(c3ccccc3)C2=O)c(C)n1-c1cccc([N+](=O)[O-])c1	.	-8	114	.
27	Cc1ccc(-c2noc(-c3cn(Cc4ccc(NS(=O)(=O)c5ccc(C)cc5C)cc4)cn3)n2)cc1	.	-32	105	.
28	Cc1ccc(S(=O)(=O)c2cn(C)c3cc(N4CCCCC4)c(F)cc3c2=O)cc1	87	.	104	98
29	O=S(=O)(c1ccc(F)cc1)N(Cc1ccc2c(c1)OCO2)S(=O)(=O)c1ccc(F)c(F)c1	93	-5	.	100
30	O=C(NCc1ccco1)c1ccccc1N(Cc1ccccc1)S(=O)(=O)c1ccccc1	103	-1	.	101
31	O=C(OCc1ccccc1Cl)c1ccc(-c2nnn(Cc3ccccc3Cl)n2)cc1	90	-22	107	104
32	CCOc1cc(CN2CCN(c3cccc(C(F)(F)F)c3)CC2)ccc1OC	95	-5	101	128
33	CCN1C(=O)/C(=C/c2c(-c3ccccc3)[nH][nH]c2=O)C(=O)c2ccccc21	62	-7	.	70
34	Cc1ccc(S(=O)(=O)Nc2cc(C(=O)NCC3CCCO3)ccc2N2CCCCC2)cc1 (stereo unspecified)	89	-33	109	97
35	COc1ccccc1CN(Cc1c(Cl)cccc1Cl)S(=O)(=O)c1ccc(Br)cc1	92	.	102	97
36	CCOC(=O)C1=CN(c2ccc(C)cc2)C=C(C(=O)OCC)C1c1ccc(OC)c(Br)c1	.	-11	106	.
37	Cc1ccc(C)c(CSc2nc(-c3ccccc3F)nc3c2Cc2c(CO)cnc(C)c2O3)c1	93	.	112	101
38	CCOC(=O)C1CCCN(C(=O)CCCN2C(=O)CSc3ncccc32)C1 (stereo unspecified)	85	-19	100	90
39	Cc1cc(C)n(-c2ccc(C(=O)OCc3nc4ccccc4[nH]3)cc2)n1	73	-13	.	90
40	CC(C)(C)c1cc(-c2csc(-c3ccno3)n2)cc(C(C)(C)C)c1O	65	-16	103	85
41	O=C1NC(=S)N/C1=C/c1cc(Br)c(Oc2ccc(C(F)(F)F)cc2[N+](=O)[O-])c(Br)c1	.	-19	106	.
42	CN1CCN(c2ccccc2/C=N/NC(=O)c2cccnc2)CC1	88	-34	103	86
43	COc1ccc(-c2cc(C(=O)NCc3ccc(F)cc3)c3ccccc3n2)c(OC)c1	.	-9	112	.
44	Cn1cc(C(=O)NCc2ccc(F)cc2)c2[nH]c(=O)n(-c3ccccc3)c(=O)c21	.	-18	101	.
45	O=C1CC(c2ccco2)Sc2nc(-c3ccc(F)cc3)nn21 (stereo unspecified)	85	-22	101	92
46	Cc1ccc(S(=O)(=O)CC(=O)Nc2sc3c(c2C#N)CCCC3)cc1	100	.	108	98
47	CCc1ccc2[nH]c(C(=O)NCCc3ccccc3)cc2c1	85	-22	103	103
48	CCOC(=O)c1cc2n(n1)CC(C)(C(=O)NC1CCCC1)N(c1cc(C)cc(C)c1)C2=O (stereo unspecified)	.	16	101	.
49	Cc1ccccc1CNC(=O)Cc1cccs1	93	2	112	110
50	C=CCn1c(SCc2ccccc2)nc2c(-c3ccccc3)cn(C)c2c1=O	.	10	106	.
51	OC(c1ccc(-c2ccccc2)[nH]1)C(F)(F)F (stereo unspecified)	91	11	.	105
52	CCC1=C(C)/C(=C\c2[nH]c(C)c(CC)c2C)N=C1C	4	-78	.	50
53	O=C(OCC(=O)N1CCc2ccccc2C1)c1cccnc1Cl	87	-21	.	120
54	O=C(CCc1ccccc1)Nc1nn2c(-c3ccccc3)nnc2s1	95	.	108	118
55	Cc1csc2ncc(C(=O)N(C)c3ccccc3)c(=O)n12	88	.	100	111
56	CC(=O)SC(C)CC(=O)Nc1ccccc1 (stereo unspecified)	96	-3	105	81
57	Cc1noc(C)c1Cn1nnc(-c2cccc(C(F)(F)F)c2)n1	95	-26	.	92
58	Cc1c(CNC2CCC(C)CC2)c(C(=O)O)c(C)n1Cc1ccccc1 (stereo unspecified)	94	8	110	106
59	CCCc1nc2ccccc2n1CC(=O)N(CC)C1CCCCC1	83	-13	.	81
60	CC(C)C1=NC(C(F)(F)F)(C(F)(F)F)NN1c1ccccc1	88	.	103	75

A different layout for some results above.
Values run as follows: Sa growth inh second temp	HCMV UL50-53 inh	GIV Gai3 FP	Sa growth inh
3) NC(=O)C1CCN(S(=O)(=O)c2cc(Cl)sc2Cl)CC1
  82	-17	101	90
4) CC(C)(C)OC(=O)NC1CCN(S(=O)(=O)c2cccc(S(=O)(=O)N3CCOCC3)c2)CC1
  84	-10	100	101
5) O=C(Nn1c(-c2ccc(Br)cc2)nc2ccccc2c1=O)c1ccc(Cl)c([N+](=O)[O-])c1
  .	-28	103	.
6) O=C(COC(=O)c1ccc2c(c1)S(=O)(=O)N=C1CCCCCN12)Nc1cccc2nsnc12
  87	-62	.	90
7) CCOC(=O)Cn1c(=O)n(Cc2ccccc2Cl)c(=O)c2cccnc21
  87	6	106	106
8) CC(=O)N1CC(C)Oc2ccc(S(=O)(=O)Nc3ccc(Cl)cn3)cc21 (stereo unspecified)
  88	-27	97	90
9) CCOC(=O)N1CCN(C(=O)c2sc3ncnc(N4CCOCC4)c3c2C)CC1
  .	-2	105	.
10) COc1cc(/C=C2\N=C(c3ccc(Cl)c([N+](=O)[O-])c3)OC2=O)cc(Br)c1OC(C)=O
  .	-13	103	.
11) CC1(c2ccccc2)NC(=O)NC1=O (stereo unspecified)
  89	-25	.	81
12) Cc1cc(C)c(NC(=O)CSC2=NN3CCCC(=O)N=C3S2)c(C)c1
  89	-2	112	95
13) CCOC(=O)N1CCC(NC(=O)Cn2c3ccccc3c(=O)c3cc(C)ccc32)CC1
  .	-3	109	.
14) O=C(NCc1ccc2c(c1)OCO2)c1ccc2c(c1)N(Cc1cccc(Cl)c1)C(=O)c1ccccc1S2
  97	.	102	124
15) COc1ccc(NS(=O)(=O)c2ccc3c(c2)NC(=O)CC(=O)N3)cc1
  .	-23	105	.
16) O=C(O)CC1CCS(=O)(=O)C1 (stereo unspecified)
  100	-23	99	96
17) CCOC(=O)c1[nH]c2ccccc2c1NC=O
  90	-19	.	94
18) CCc1ccc(NC(=O)c2ccc3c(O)c(S(=O)(=O)c4ccc(Cl)cc4)c(=O)[nH]c3c2)cc1
  87	.	99	102
19) CN(C)S(=O)(=O)c1ccc2c(c1)nc(CCC(=O)Nc1ccc3c(c1)OCO3)n2C
  92	-8	.	99

(further entries)
#	Structure	Sa growth inh second temp	HCMV UL50-53 inh	GIV Gai3 FP	Sa growth inh
61	CCOc1ccc(NC(=O)CSc2nnc(-c3ccc(OCC)cc3)o2)cc1	91	-14	99	95
62	CCCOc1cccc(C2c3c(oc4ccc(F)cc4c3=O)C(=O)N2CCc2ccc(OC)cc2)c1 (stereo unspecified)	91	-20	104	87
63	CCOc1ccc(NC(=O)CC2C(=O)N(c3ccccc3)C(=O)N2CCc2cccs2)cc1 (stereo unspecified)	81	-21	97	107
64	N#CC1=C(N)SC2CSCC2=C1 (stereo unspecified)	57	-36	.	67
65	Cc1ccn2c(Nc3ccc(F)cc3)c(-c3ccc(C)o3)nc2c1	76	-2	106	121
66	CCN(CC)CC(O)Cn1c(C)c(C)c2ccccc21 (stereo unspecified)	103	4	103	103
67	O=C(Nc1ccccc1)Nc1csc(-c2ccc(C(F)(F)F)cc2)n1	90	-22	106	87
68	O=C(CSc1nc2ccccc2c(=O)[nH]1)c1ccc(-c2ccccc2)cc1	93	-25	105	107
69	Cc1cccc(N2CCN(C(=O)C3CCN(S(=O)(=O)c4cccc5nsnc45)CC3)CC2C)c1 (stereo unspecified)	.	-45	102	.
70	O=C(Nc1ccccc1C(=O)NCCCN1CCCC1)C1=CSCCO1	77	-39	105	90
71	N#Cc1cnc(-c2cnccn2)nc1N	89	-30	92	97
72	N#Cc1nc2c(C#N)c3ccc4ccccc4n3c2nc1C#N	91	-40	.	74
73	Cc1ccccc1C(=O)NCC(=O)c1ccc(Cl)cc1	83	.	95	100
74	CCn1ccnc1C(O)c1cc(OC)ccc1OC (stereo unspecified)	95	-3	104	105
75	CCCN(CCC)C(=O)Nc1cn(CC(C)C)c(=O)c2ccccc12	102	14	100	96
76	CCCCN(C)c1ccc2nnc(-c3ccccc3)n2n1	.	-54	105	.
77	Cc1c(-c2nsc(NC(=O)c3ccccc3)n2)nnn1-c1ccc(C(F)(F)F)c(Cl)c1	87	-6	103	90
78	CCC(C)NCc1ccc(-c2ccc(OC)c(Cl)c2)o1 (stereo unspecified)	.	-12	107	.
79	Cc1c(C#N)c2ccccc2n1CC(=O)N1CCCCC1C (stereo unspecified)	84	-12	.	110
80	Fc1ccc(OCc2nnc3sc(CCCc4ccccc4)nn23)cc1	.	-5	107	.
81	O=C(CCOc1ccccc1)Nc1ccccc1N1CCOCC1	92	-14	.	89
82	COc1ccc(C)cc1NC(=O)CN1C(=O)COc2ccc(S(=O)(=O)N3CCOCC3)cc21	84	.	110	134
83	Cc1ccc2nc(-c3ccccc3F)c(Nc3ccc(Cl)cc3)n2c1	78	1	103	91
84	CCC(=O)N1CCc2cc(S(=O)(=O)CCC(=O)NCc3ccc(C)cc3)ccc21	91	-13	103	100
85	COCCOC(=O)C1=C(C)NC2=C(C(=O)CC(c3ccc(OC)cc3)C2)C1c1ccc2c(c1)OCO2 (stereo unspecified)	.	-5	107	.
86	Cc1ccccc1-c1nc(N)n(C(=O)C2CC2)n1	.	-10	100	.
87	O=c1oc(-c2ccco2)cc(-c2ccccc2)c1-c1ccccc1	93	-20	104	97
88	Cc1cc2c(n1-c1ccc(C(=O)NC(C)C)cc1)CCCC2	84	-16	110	90

Rows are unselected. Share with any hit: about 0.83%.
